miR-21 reporter: miR-21 reporter, rising signal; HeLa miR-21 FLuc reporter, luciferase, 48 h; Potency, µM (doses to about 38.3 µM), for the others: at the top dose reporter change, positive = more light; AID 2288; 340,000 tested, under 10 active; active = well fitted rising curve with a large enough effect; inconclusive = small, poorly fitted or top-dose-only effect; inactive = no such curve, though single readings can be large or run the other way;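 further: % of control where 0% means no effect; miR-21 action dims this reporter so a rising signal means less miR-21 action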
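HeLa cells stably expressing CMV-driven firefly luciferase with a downstream miR-21 binding sequence, endogenously expressing miR-21, were treated with titrations (up to about 40uM final) for 48 hours at 37 degree Celsius. Luciferase luminescence was read after lysis.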
Numbers without * were called inactive; ? = inconclusive; [ ] = remark or other dose. These rows are one share of the data; rates above refer to the full screens.

Compound | miR-21 reporter
CCC(C)NC(=O)CSc1nc(-c2ccc(F)cc2)cc(C(F)(F)F)n1 (stereo not drawn) | -2%
Cc1ccc(C)c(N2CCN(c3nc4ccccc4c(=O)n3-c3ccccc3)CC2)c1 | 0%
CCc1ccc(CNC(=O)c2cnc3sc(N4CCCCC4)nn3c2=O)cc1 | -4%
O=C(NCc1ccc(Cl)cc1)c1cnc2sc(N3CCCCCC3)nn2c1=O | -4%
CCOC(=O)C1CCN(c2cc(C)nc3c(-c4ccccc4OC)c(C)nn23)CC1 | 14%
Cc1nc2c3cccnc3nn2c(C)c1CCC(=O)NCc1ccccc1Cl | 2%
O=C1CCCc2cc(S(=O)(=O)N3CCCC(C(=O)NCc4ccccc4Cl)C3)ccc2N1 (stereo not drawn) | 12%
Cc1sc2c(c1C)c(=O)n(CCc1ccccc1)c(=O)n2Cc1ccc(F)cc1 | -1%
COc1ccc(-c2noc(-c3ccc(N4CCCCC4)c([N+](=O)[O-])c3)n2)cc1 | 3%
CN(C)c1ccc(NC(=O)CSC2=Nc3ccccc3C3=NC(CC(=O)NCc4ccccc4)C(=O)N23)cc1 (stereo not drawn) | -33%
Cn1c2c(c(=O)n(C)c1=O)C(c1ccccc1[N+](=O)[O-])CC(=O)N2 (stereo not drawn) | -2%
CC1CCc2onc(C(=O)N3CCN(c4cccc(Cl)c4)CC3)c2C1 (stereo not drawn) | -2%
Cc1ccc(C)c(NC(=O)c2nn(C)c3c2CS(=O)(=O)c2ccccc2-3)c1 | -1%
COc1cc(NC(=O)c2cnn(-c3cccc(F)c3)c2C2CCNCC2)cc(OC)c1OC | 3%
COc1ccc(N2CC3=C(C2=O)C(c2ccc(O)c(OC)c2)NC(=O)N3C)cc1 (stereo not drawn) | -25%
Cc1cc(Cl)ccc1NS(=O)(=O)c1c(C(=O)N2CCC(C)CC2)c(C)n(C)c1C | 2%
CCSc1nc(=O)c2c(n1C)NC(=O)CC2c1ccc(O)cc1OC (stereo not drawn) | -2%
O=C(Cn1c(=O)nc(-c2ccccc2)c2cc(Cl)ccc21)NCCc1ccccc1 | 4%
COc1cc(CN(C(=O)Nc2cccc(Cl)c2)c2ccccn2)cc(OC)c1OC | -8%
Cc1cccc(NC(=O)Cn2c(=O)n(Cc3ccc4c(c3)OCO4)c(=O)c3ccccc32)c1 | -1%

Sorted by molar mass (largest number first): part of the list above.
Compound | miR-21 reporter
COc1cc(NC(=O)c2cnn(-c3cccc(F)c3)c2C2CCNCC2)cc(OC)c1OC | 3%
Cc1cccc(NC(=O)Cn2c(=O)n(Cc3ccc4c(c3)OCO4)c(=O)c3ccccc32)c1 | -1%
Cc1cc(Cl)ccc1NS(=O)(=O)c1c(C(=O)N2CCC(C)CC2)c(C)n(C)c1C | 2%
COc1cc(CN(C(=O)Nc2cccc(Cl)c2)c2ccccn2)cc(OC)c1OC | -8%
O=C(NCc1ccc(Cl)cc1)c1cnc2sc(N3CCCCCC3)nn2c1=O | -4%
Cc1ccc(C)c(N2CCN(c3nc4ccccc4c(=O)n3-c3ccccc3)CC2)c1 | 0%
Cc1sc2c(c1C)c(=O)n(CCc1ccccc1)c(=O)n2Cc1ccc(F)cc1 | -1%
CCc1ccc(CNC(=O)c2cnc3sc(N4CCCCC4)nn3c2=O)cc1 | -4%
COc1ccc(N2CC3=C(C2=O)C(c2ccc(O)c(OC)c2)NC(=O)N3C)cc1 (stereo not drawn) | -25%
Cc1nc2c3cccnc3nn2c(C)c1CCC(=O)NCc1ccccc1Cl | 2%
Cc1ccc(C)c(NC(=O)c2nn(C)c3c2CS(=O)(=O)c2ccccc2-3)c1 | -1%
COc1ccc(-c2noc(-c3ccc(N4CCCCC4)c([N+](=O)[O-])c3)n2)cc1 | 3%
CCSc1nc(=O)c2c(n1C)NC(=O)CC2c1ccc(O)cc1OC (stereo not drawn) | -2%

Continued.
Compound | miR-21 reporter
Cc1ccccc1C(=O)N1CCC(N2CCN(Cc3ccc(F)cc3)C(=O)C2=O)CC1 | -1%
COc1cccc(-n2c(-c3ccco3)nc3c(cnn3-c3ccc(C)cc3)c2=O)c1 | 19%
COc1ccc(-c2nc(S(=O)(=O)c3ccc(C)cc3)c(NCc3ccccc3)o2)cc1 | 0%
CC1=C(C(=O)Nc2ccccc2)C(c2ccccc2C)n2nc(SCC(=O)c3ccc(C)cc3)nc2N1 (stereo not drawn) | 1%
COc1ccc(NCc2cccn2-c2nnc(N3CCCCCC3)s2)cc1 | -40%
Cc1ccc(C)c(N2CCN(S(=O)(=O)c3ccc(-c4coc(C)n4)cc3)CC2)c1 | 0%
CCCCN(C)C(=O)Cn1c(C2CC(=O)N(c3ccc(C)cc3)C2)nc2ccccc21 (stereo not drawn) | -1%
Cc1c(Cl)cccc1NC(=O)C(C)n1nc(C)c2c(C)n(-c3ccccc3)nc2c1=O (stereo not drawn) | 14%
COc1ccccc1Cn1cc(C(=O)c2ccc(Cl)cc2)c(=O)c2cc3c(cc21)OCCO3 | -4%
COc1ccc(CNC(=O)c2ccc(-c3nc(CSc4ccc(C)cc4)c(C)o3)cc2)c(OC)c1 | 2%
CC1=C(C(=O)Nc2ccccc2)C(c2ccccc2C)n2ncc(C(=O)Nc3ccccc3)c2N1 (stereo not drawn) | 19%
Cc1ccc(CNC(=O)C2CCCN(c3nnc(-n4c(C)ccc4C)s3)C2)cc1 (stereo not drawn) | 6%
Cc1cccc(OCC(=O)Nc2cccc(-c3nc4ccccc4s3)c2)c1 | -32%
Cc1cccn2c(=O)c3cc(C(=O)NC(C)C)n(C)c3nc12 | -1%
O=S(=O)(Nc1ccc(Cl)cc1)c1cccc(S(=O)(=O)c2ccc(Cl)c(Cl)c2)c1 | 12%
N#Cc1ccc2c(c1)C[C@]1(c3ccsc3)Oc3c(c(=O)oc4ccc(F)cc34)C2O1 | -5%[7.66 µM]
CC(=O)Nc1ccc2nc(NC(=O)CS(=O)(=O)c3ccc(C)cc3)sc2c1 | -5%
COc1cccc(N2CC(NC(=O)c3ccc4c(c3)OCO4)CC2=O)c1 (stereo not drawn) | -2%
CCOc1ccccc1CNC(=O)c1ccc2c(c1)N(Cc1ccc(C)cc1)CCS2 | 0%
COc1cc2cc(CNc3ccccc3)c(=O)n(CC(=O)Nc3cc(C)cc(C)c3)c2cc1OC | -3%

Carrying on.
Compound | miR-21 reporter
CC1CCn2c(nc3cc(C(=O)NCCc4ccccc4)ccc32)C1 (stereo not drawn) | 11%
CCOC(=O)c1ccc(N2C(=O)c3[nH]nc(-c4ccc(C)cc4)c3C2c2ccc(O)c(OCC)c2)cc1 (stereo not drawn) | 29%
COc1ccc(-n2ccnc2SCC(=O)Nc2ccc(F)cc2F)cc1 | 7%
Cc1ccc(C(=O)N2CCc3cc(CNC(=O)CSc4ccccc4)ccc32)cc1 | 16%
CCCCN(C)C(=O)c1ccc2c(c1)NC(=O)C(CC(C)C)N2 (stereo not drawn) | -4%
Cc1ccc2c(c1)c1c(c(=O)n(-c3ccccc3C)c(=O)n1CC(=O)c1ccc(Cl)cc1)n2C | -5%
CCc1ccc(-c2nc(CSCC(=O)N3CCN(c4ccc(F)cc4)CC3)c(C)o2)cc1 | 24%
COc1cc(OC)c(NS(=O)(=O)c2ccc3c(c2)NC(=O)CCS3)cc1Cl | 28%
COc1ccc2c(c1)c1c(c(=O)n(-c3ccccc3C)c(=O)n1CC(=O)NCc1ccc(C)cc1)n2C | 6%
CCOC(=O)c1cnc2c(C(F)(F)F)cccc2c1Nc1cccc(C(=O)OC)c1 | 6%
COc1cc(NC(=O)Cn2c(=O)n(Cc3ccccc3Cl)c(=O)c3cc(OC)c(OC)cc32)cc(OC)c1 | 2%
CCCN(CCC)C(=O)Cn1nnc2sc(-c3ccccc3)cc2c1=O | 1%
O=C(NCc1ccccc1)c1cccc(N2CCCS2(=O)=O)c1 | -4%
COc1ccccc1Cc1nc2ccccc2[nH]c1=O | -8%
CCOc1ccc(NC(=O)c2cnc(N3CCCCC3)c3ccccc23)cc1 | 7%
COc1ccccc1C1NC(=O)c2n[nH]c(-c3cccs3)c21 (stereo not drawn) | -2%
Cc1ccc(-n2nc3c(N4CCCC(C(=O)NCCc5ccccc5)C4)nnc(C)c3c2C)cc1 (stereo not drawn) | 7%
CCOC(=O)c1ccccc1NC(=O)N(C(C)C)C1CCN(C(C)=O)CC1 | -1%
CN(C)S(=O)(=O)c1ccc(C(=O)N(Cc2cccnc2)c2nc3c(F)cc(F)cc3s2)cc1 | -11%
CCc1ccc(NC(=O)C2CCN(S(=O)(=O)c3cccc(-c4noc(C)n4)c3)CC2)cc1 | ?

Other records follow.
Compound | miR-21 reporter
CC(C)(C)c1ccc(NC(=O)CSc2nnc3scc(-c4ccccc4)n23)cc1 | 27%
CCC(C(=O)NCCC(C)C)N(C(=O)Cn1nnc(-c2ccc(C)cc2)n1)c1cccc(O)c1 (stereo not drawn) | 25%
CCc1ccc(NCc2cc3cc4c(cc3n(CC(=O)Nc3ccc(Cl)cc3)c2=O)OCO4)cc1 | -13%
Cn1c(=O)n(C/C=C/c2ccccc2)c(=O)c2c1nc1n2CCN1c1ccccc1 | -7%
COc1ccc(NC(=O)CSc2nc3c(oc4ccccc43)c(=O)n2-c2ccc(C)c(C)c2)cc1 | 11%
Cc1ccc(-c2nc3c(c(SCc4ccc(Br)cc4)n2)Cc2c(CO)cnc(C)c2O3)cc1 | -2%
CCOC(=O)c1ccc(NC(=O)Cc2coc3cc(C)cc(C)c23)cc1 | -3%
CCOCCCNC(=O)Cn1ncc2c([nH]c3ccc(C)cc32)c1=O | -1%
O=C(CSc1oc(-c2ccc(F)cc2)nc1S(=O)(=O)c1ccc(Br)cc1)NC1CCCCC1 | 0%
CCCOc1cccc(C2c3c(oc4ccc(F)cc4c3=O)C(=O)N2c2nc(C)c(C(C)=O)s2)c1 (stereo not drawn) | -3%
O=C(CCCn1c(=O)c2cccn2c2ccccc21)NCCc1ccc(Cl)cc1 | -86%
CC(=O)c1ccc(C(=O)N(CCCN(C)C)c2nc3c(C)c(C)ccc3s2)cc1 | -11%
CCc1ccc(-n2c(CCC(=O)O)ccc2-c2ccc(F)cc2)cc1 | -4%
CCCCCCOc1ccc(-c2nc3ccc(Br)cc3c(=O)o2)cc1 | -10%
COc1ccc(-n2c(CCC(=O)O)ccc2-c2ccccc2)c(OC)c1 | -41%
COc1cc(OC)c(NS(=O)(=O)c2c(C)nc3sc(C)cn3c2=O)cc1Cl | 7%
Cc1cccc(OC(C)C(=O)Nc2nonc2-c2ccc(Br)cc2)c1C (stereo not drawn) | 0%
COc1ccc(C2C(=O)N(C3CCC(C)CC3)CC(=O)N2CCC2=CCCCC2)cc1OC (stereo not drawn) | -10%
COc1ccc(Cl)cc1NC(=O)CN(c1cccc(C)c1C)S(C)(=O)=O | ?
Cc1ccc(NC(=O)C2CCN(C(=O)c3cnn(-c4ccccc4)c3-n3cccc3)CC2)cc1C | 26%

(further entries)
Compound | miR-21 reporter
CCOc1ccc(Nc2ncnc3c2cnn3-c2ccc(F)cc2)cc1 | -17%
Cc1ccc(-c2cc3c(N4CCN(c5cc(C)ccc5C)CC4)nccn3n2)cc1 | 1%
CC(=O)Nc1ccc(NS(=O)(=O)c2ccc3[nH]c4c(c3c2)CCCCC4)cc1 | 0%
Cc1cccc(CNC(=O)Cn2nc(C)n3c(cc4cc(F)ccc43)c2=O)c1 | -1%
COc1cccc(N2C(=O)CSC23C(=O)N(CC(=O)Nc2cc(C)ccc2C)c2ccccc23)c1 (stereo not drawn) | 3%
CCOc1ccc(NC(=O)CN2C(=O)C(c3ccccc3)=NC23CCC(C)CC3)cc1 (stereo not drawn) | 28%
Cc1cccc(C)c1NS(=O)(=O)c1ccc2c(c1)[C@H]1C=CC[C@H]1[C@@H](c1ccc(Cl)cc1)N2 | -1%
Cc1ccc(CCNC(=O)c2c(C)oc3nc(C)nc(N4CCOCC4)c23)cc1 | -9%
COc1ccc(C)cc1NC(=O)CSc1nc(=O)n(Cc2cccnc2)c2c1CCC2 | 5%
CC(C)c1noc(-c2ccccc2OCC(=O)Nc2ccc([N+](=O)[O-])cc2)n1 | -5%
Cc1ccc(C(=O)Nc2cccc(C(=O)O)c2)cc1S(=O)(=O)N1CCCC1 | -32%
Cc1cc(C)n(-c2nc3cc(Cl)c(Cl)cc3nc2Nc2ccc(F)cc2C)n1 | -2%
O=C(CC(c1cccs1)N1Cc2ccccc2C1=O)Nc1ccccc1F (stereo not drawn) | 13%
CCN(CC)CCSc1c(C(C)C)cnc2c1c(=O)n(C)c(=O)n2C | 0%
COc1ccc(NC(=O)c2cccn2-c2nnc(N3CCCCC3)s2)cc1 | -30%
COc1ccc(-c2ccc(NS(=O)(=O)c3ccc(OC)c(OC)c3)cc2)nn1 | -3%
Cc1oc2c(c(C)cc3oc(=O)c(CC(=O)NCc4ccccc4)c(C)c32)c1C | 2%
COc1ccc(OC)c(NC(=O)CN(C)S(=O)(=O)c2ccc3[nH]c4c(c3c2)CCCC4)c1 | 5%
O=C(Nc1ccccc1Cl)c1cc2c(-c3ccccc3)nn(-c3ccccc3)c2s1 | 0%
COc1ccc(C)cc1NC(=O)c1nnn(Cc2cccc(Br)c2)c1N | 15%

Later entries.
Compound | miR-21 reporter
N#Cc1ccccc1S(=O)(=O)N1CCC(Oc2ccc(-n3cnnn3)cc2)CC1 | ?
COc1ccccc1CNC(=O)c1ccc2c(c1)sc1nc(-c3ccc(F)cc3)cn12 | -7%
O=C(CSc1nc(-c2ccccc2)no1)N1CCN(c2ccccc2F)CC1 | -3%
COc1ccc(CNC(=O)Cn2nc(C)c3nn(-c4ccc(Cl)cc4)c(C)c3c2=O)cc1 | 2%
